Bioassay records (PubChem BioAssay)
PINK1 expr mod: modulators of PINK1 expression; PINK1 immunofluorescence, high-content cytometry, 24 h; Potency, µM (top dose mostly 76.6 µM), for inactives: at the top dose activation (PINK1 increase), usual class: activators; actives 0.2% (n = 410,000); AID 624263; active = well fitted activation curve with a large enough effect; inconclusive = small, poorly fitted or top-dose-only effect; inactive = flat fitted curve, though single readings scatter; cell line not stated here;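 further: potency means the concentration at half of the fitted maximal effect; % of control where 0% means no effect; nearly all actives have a fitted effect of over 65% in size; a mitochondrial uncoupler was the plate control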
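Decision-based qHTS: stable cells, 24 h exposure to five compound concentrations, CCCP as control. Fixed cells stained for PINK1 plus nuclear, mitochondrial and cell markers, cytometer read.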
Six1-Eya2 blk: blocks human Six1 binding to Eya2. Q15475+O00167. AlphaScreen GST-Six1/His-Eya2 binding, biochemical; active compounds read low; control for the full effect not named in the record. activity change, % (concentration not given with the values). actives 0.56% (n = 360,000); in the data active = activity change below about -65%; inconclusive = about -30% to -65%; inactive = above about -30%; further: on the % scale 0 is the no-effect control and ±100 the full control effect
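GST-Six1 + His-Eya2 (5X stock: 250/500 nM); Tris pH 8.0, 300 mM NaCl, 0.05% BSA, 0.02% Tween 20; GSH donor/Ni acceptor beads; 1 h 37 °C dark; AlphaScreen readout.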
CtBP-E1A inh: inhibitors of CtBP/E1A interaction | AlphaScreen GST-E1A/His-CtBP binding, 1536-well; active compounds read low; control for the full effect not named in the record | activity change, % (no concentration beside the values) | actives 0.49% (n = 340,000) | AID 651724; in the data active means activity change below about -65%; inconclusive means about -30% to -65%; inactive means above about -30%; further: on the % scale 0 is the no-effect control and ±100 the full control effect
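Protein mix (5X: 125 nM each GST-E1A, His-CtBP) was incubated with pinned compound 2 h at 37 deg C in dark, in 50 mM Tris pH 8.0 buffer with 300 mM NaCl. Glutathione donor and nickel acceptor beads followed; AlphaScreen signal read after 1 h.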
TRPML1 ag: human mucolipin-1 channel agonism; TRPML1-expressing cells, Ca2+ dye fluorescence, FDSS; host cell line not named in the record; reference of the full effect not given here; activation, % (test concentration not listed); actives 0.12% (n = 410,000); in the data active = activation above about 50%; inconclusive = about 30% to 50%; inactive = below about 30%; further: 0% is about no effect; the text of the record puts the active cut at 80%
Target sequence (Q9GZU1 whole entry, looked up): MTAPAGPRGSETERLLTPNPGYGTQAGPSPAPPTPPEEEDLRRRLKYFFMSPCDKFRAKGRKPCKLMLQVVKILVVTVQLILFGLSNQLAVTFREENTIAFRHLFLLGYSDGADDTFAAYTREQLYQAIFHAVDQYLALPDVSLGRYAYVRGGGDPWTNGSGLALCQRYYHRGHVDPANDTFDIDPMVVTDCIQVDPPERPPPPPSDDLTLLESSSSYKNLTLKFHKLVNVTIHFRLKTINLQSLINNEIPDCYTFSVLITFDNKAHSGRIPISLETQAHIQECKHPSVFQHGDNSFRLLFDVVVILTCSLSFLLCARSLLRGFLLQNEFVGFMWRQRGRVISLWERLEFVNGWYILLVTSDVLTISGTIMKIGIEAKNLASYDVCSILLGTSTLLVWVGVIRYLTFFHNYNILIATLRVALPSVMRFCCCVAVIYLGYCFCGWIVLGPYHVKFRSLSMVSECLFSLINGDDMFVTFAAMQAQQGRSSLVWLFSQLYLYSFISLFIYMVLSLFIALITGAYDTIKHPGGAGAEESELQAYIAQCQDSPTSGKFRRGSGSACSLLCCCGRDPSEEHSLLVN
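TRPML1-DL cells, Tet-induced overnight (~16 h, 37 degrees C), loaded 45-90 min at room temperature with Ca8 no-wash calcium dye plus quencher. FDSS fluorescence: 10 s baseline, compound pin-transfer, 110 s agonist read, then EC80 54-4 (4uM final) and 110 s antagonist read.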
TRPML1 inh: inhibitors of human TRPML1 channel | Q9GZU1 | TRPML1-inducible cells, Ca2+ dye fluorescence, FDSS; active compounds read low; inhibition of EC80 agonist-evoked calcium signal | activity change, negative = inhibition, % (no concentration beside the values) | actives 0.02% (n = 390,000) | AID 624415; in the data active means activity change below about -50%; inconclusive means about -30% to -50%; inactive means above about -30%;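 further: stimulus is agonist 54-4 at its EC80 concentration; on the % scale 0 is the no-effect control and ±100 the full control effect; compound concentration not given in the record; the text of the record puts the active cut at -80%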
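TRPML1-DL cells, Tet-induced overnight (~16 h, 37 °C) at 1,500 cells/well, were loaded with Ca8 no-wash dye plus quencher for 45-90 min at room temperature. Compounds were pinned during FDSS kinetic reading; agonist 54-4 at EC80 (4 uM final) then added.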
D2 agonist: agonists of human D2 dopamine receptor (beta-arrestin) | DiscoveRx PathHunter D2 beta-arrestin, luminescence, 90 min; 100% = 57 uM dopamine signal | activation, % (no concentration beside the values) | actives 0.084% (n = 360,000); in the data active = activation above about 40%; inconclusive = about 15% to 40%; inactive = below about 15%; further: compound concentration not given in the record; the text of the record calls up to 30% inactive
Target sequence (P14416 whole entry, looked up): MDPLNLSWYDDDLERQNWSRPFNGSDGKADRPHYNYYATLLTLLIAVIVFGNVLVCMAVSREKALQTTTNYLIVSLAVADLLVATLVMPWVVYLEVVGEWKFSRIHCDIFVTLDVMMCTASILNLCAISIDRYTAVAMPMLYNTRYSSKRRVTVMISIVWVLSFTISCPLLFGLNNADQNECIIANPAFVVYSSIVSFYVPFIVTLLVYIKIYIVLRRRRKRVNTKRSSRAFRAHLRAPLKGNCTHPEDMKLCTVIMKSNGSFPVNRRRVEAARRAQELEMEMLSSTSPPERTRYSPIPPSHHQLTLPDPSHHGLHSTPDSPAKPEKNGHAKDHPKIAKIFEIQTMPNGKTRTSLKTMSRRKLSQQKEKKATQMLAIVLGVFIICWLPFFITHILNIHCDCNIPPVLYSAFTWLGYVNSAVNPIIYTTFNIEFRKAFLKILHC
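DiscoveRx PathHunter D2 beta-arrestin cells (2,100/well) attached overnight, then compound-stimulated 90 min at 37 C in HBSS/10 mM HEPES/0.1% Tween-20 buffer; beta-galactosidase complementation read by luminescence after 1 h at ambient temperature. Dopamine 57 uM final (EC100) as control.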
Numbers without * were called inactive; u = inconclusive; x = no result given; [ ] = remark or other dose.

SMILES	PINK1 expr mod	Six1-Eya2 blk	CtBP-E1A inh	TRPML1 ag	TRPML1 inh	D2 agonist
COC(=O)c1ccccc1NC(=O)CSc1nc2ccsc2c(=O)n1Cc1ccc(C(=O)O)cc1	-0.5%	-3.4	-0.3	0.1	-1.4	-3.0
CCSc1nnc2c(n1)[nH]c1c(C)cccc12	x	-13.3	11.3	0.8	4.7	0.9
C=CCOc1ccc(CNC(C)(C)C)cc1OC	2.4%	0.9	5.1	-0.1	-1.5	-2.6
COCCN(C(=O)CSc1nnc(C)n1-c1ccccc1)c1c(N)n(Cc2ccccc2)c(=O)[nH]c1=O	-0.3%	-6.4	-10.0	0.2	-14.0	-2.5
O=c1c2cc(NC(=S)NCCN3CCCCCC3)ccc2nc2n1CCCCC2	-2.0%	1.6	8.2	-0.6	11.9	-2.2
CC1(NC(=S)Nc2ccc3ccccc3c2)CCS(=O)(=O)C1 (stereo not drawn)	1.4%	5.1	2.4	0.2	-9.0	1.6
CCOc1ccc(NC(=O)c2ccc(F)c(S(=O)(=O)N3CCN(c4ccccn4)CC3)c2)cc1	2.2%[38.3 µM]	-4.7	-16.1	1.7	-4.7	0.9
Cc1ccccc1S(=O)(=O)Nc1ncc(C(F)(F)F)cc1Cl	3.7%	0.0	7.5	-0.1	0.6	2.3
Cc1cccc(C)c1NC(=O)C(NS(=O)(=O)c1ccc2c(c1)CCC(=O)N2)c1ccccc1 (stereo not drawn)	2.1%	x	x	-0.1	-7.6	x
O=C1N(c2ccccc2C(F)(F)F)O[C@]1(c1ccccc1)C1CCCCC1	0.4%	29.1	-12.8	-0.3	5.2	-3.3
c1ccc(COC2COC3C(OCc4ccccc4)COC23)cc1 (stereo not drawn)	1.5%	-1.3	8.1	-0.1	-12.3	-1.3
O=[N+]([O-])c1ccc(NCCCO)c(S(=O)(=O)N2CCOCC2)c1	-1.2%	1.0	5.0	0.1	-3.6	1.7
OC(COCc1ccc2c(c1)OCO2)CN1CCCCC1 (stereo not drawn)	0.6%	-18.0	x	0.3	-15.7	-4.4
CCC(c1nnnn1CCc1ccccc1)N1CCN(C(=O)c2ccco2)CC1 (stereo not drawn)	-1.0%	7.0	12.1	0.1	-11.7	-0.5
O=c1[nH]cc(COCC(F)CCl)c(=O)[nH]1 (stereo not drawn)	0.6%	11.5	x	-0.4	-7.9	-1.6
Cc1ccnc(NC(=O)c2cc(-n3cnnc3)ccc2Cl)c1	0.2%[38.3 µM]	8.9	3.9	4.6	4.6	-2.9
O=C(c1cncc(Br)c1)N1CCN(S(=O)(=O)c2ccc3ccccc3c2)CC1	0.7%	-12.3	-1.3	0.2	16.2	1.7
CC(=O)Nc1ccc(NC(=O)CN(c2cc(Cl)ccc2Cl)S(C)(=O)=O)cc1	1.4%	1.9	-1.1	-0.2	-6.9	-2.5
COc1ccc(CNC(=O)C2CSCCS2)cc1 (stereo not drawn)	-0.9%	3.0	-4.3	-0.1	-21.5	-1.1
O=C(NCC(=O)N1CC(O)CC1C(=O)N1CC(O)CC1C(=O)OCc1ccccc1)OCc1ccccc1 (stereo not drawn)	-0.3%	2.6	-1.4	-0.1	-2.8	-6.9
Cc1ccc(C2Nc3ccccc3C(=O)N2CCCN2CCOCC2)cc1 (stereo not drawn)	0.6%	0.7	x	-0.1	-5.7	-5.3
O=C(COC(=O)/C=C/c1ccccc1[N+](=O)[O-])NCC(F)(F)F	-1.5%	18.7	x	0.5	9.9	2.1
COc1cc(C2N=C(N)Nc3nc4ccccc4n32)ccc1OCCC(C)C (stereo not drawn)	2.3%	x	x	-0.3	15.3	x
CCOC(=O)c1cnc2cc(-c3ccc(C(C)(C)C)cc3)nn2c1N	5.2%	8.0	-2.2	-0.2	-13.4	-2.7
COc1ccc(OCC(=O)NNC(=S)NC(=O)c2ccc([N+](=O)[O-])cc2)cc1	2.2%	2.1	-3.0	-0.4	21.6	3.2
CCOc1ccc(-c2cccc(NS(=O)(=O)c3cccc([N+](=O)[O-])c3)c2)nn1	-0.9%	-14.0	-7.7	-0.2	7.8	0.5
CCOC(=O)C1CCCN(c2c(N3CCN(c4cccc(Cl)c4)CC3)c(=O)c2=O)C1 (stereo not drawn)	0.6%	-6.3	5.1	-0.6	23.7	-1.1
Cc1cc(=O)[nH]c(SCc2ccc(Cl)cc2)n1	5.6%	0.6	12.5	0.2	62.2	-0.3
Nc1ccc(C(=O)Nc2ccc3c(O)cc(S(=O)(=O)O)cc3c2)cc1	-0.2%	u	u	-0.5	-5.4	3.3
CN1CCN(C(CNC(=O)c2ccccc2F)c2ccc3c(c2)OCO3)CC1 (stereo not drawn)	-1.3%	x	x	-0.8	-18.1	x
CN(Cc1ccccc1)C(=O)COc1cccnc1[N+](=O)[O-]	-0.3%	2.1	2.3	0.7	5.8	7.5
CCOC(=O)c1c(C)[nH]c(C2=NNC(=NC3CC3)SC2)c1C	-0.8%	-10.8	-12.3	2.6	15.5	9.5
Cc1cc(N2CCCC2)nc2ccc(NC(=S)NC(C)C)cc12	4.3%	-5.2	-3.8	2.5	25.3	-0.6
Cc1ccc(C(=O)OCC(=O)Nc2ccc3[nH]c(=O)[nH]c3c2)cc1[N+](=O)[O-]	-2.6%	-3.9	-0.8	-0.6	6.9	1.5
CCCn1c(SC(C)C(=O)NCC2CCCO2)nc2sc3c(c2c1=O)CCC3 (stereo not drawn)	3.6%	-4.9	-2.0	0.6	1.5	1.4
CCOc1ccc(NC(=O)Cn2nc3c(cc2=O)CC(C)CC3)cc1 (stereo not drawn)	0.0%	x	x	-0.9	0.2	x
COc1ccccc1NS(=O)(=O)c1ccc(O)c(C(=O)OCC(=O)c2ccc(Cl)cc2Cl)c1	2.2%	-2.2	-5.6	-0.9	8.6	-12.5
CCOC(=O)c1nn(-c2ccccc2C)c(=O)c(C#N)c1C	0.6%	2.3	9.9	-0.5	-8.8	4.5
CCOC(=O)c1c(NC(=O)CCC(=O)O)sc2c1CC(C)(C)OC2	0.1%	-2.8	6.7	-0.4	32.5	-1.1
Cc1ccc(Nc2nc3ccccc3c(=O)s2)cc1	-0.1%	-0.2	x	0.0	-5.1	-1.9
CCn1nc(C(=O)Nc2ccc(N3CCOCC3)cc2)c2ccccc2c1=O	1.0%	-10.0	x	-0.5	13.0	1.2
CN1C(=O)c2ccccc2C(C(=O)NCC2CCCO2)C1c1c[nH]c2ccccc12 (stereo not drawn)	0.6%	3.0	5.0	-1.0	-4.3	-4.7
CN(C)CCN(C(=O)CCc1ccccc1)c1nc2c(F)cc(F)cc2s1	u	-17.9	4.5	-0.1	-8.3	-3.6
Cc1ccc(-c2[nH]c3cc(C(=O)NCCCn4ccnc4)ccc3c(=O)c2O)cc1	-0.2%	-11.8	-6.6	-0.2	-5.6	4.0
CCN(CC)C(=O)c1cccc(NC(=O)c2cc(C3CC3)nc3c2cnn3C(C)C)c1	-0.2%	3.7	x	0.9	-10.0	-0.3
C=CC(C)(O)CCCC(C)CCCC(C)CCCC(C)C (stereo not drawn)	0.1%	22.7	0.0	-0.2	-13.7	-4.6
C=CCN(Cc1ccc(Cl)s1)C(=O)c1cc(S(=O)(=O)N2CCOCC2)ccc1F	2.1%	-4.3	x	-0.4	-1.8	-1.7
O=C(CSc1nnc(-c2ccc(O)cc2)o1)Nc1ccccc1Br	-1.6%	4.6	-0.9	0.7	15.3	-2.9
CCC(CC)NC(=O)C1CCN(S(=O)(=O)c2cccs2)CC1	-2.2%	7.2	0.7	0.6	1.0	-0.3
CC1(Cc2cccc(C#N)c2)C(=O)Nc2ccc(-c3cccc(C(F)(F)F)c3)cc21 (stereo not drawn)	-1.4%	0.9	1.3	0.4	x	-6.4
O=C(C1CCC(CNc2c(N3CCCC3)c(=O)c2=O)CC1)N1CCc2ccccc21 (stereo not drawn)	0.1%	-10.3	x	0.1	19.1	-6.3
CN/S(=N/S(=O)(=O)c1ccccc1)c1ccc(C)cc1 (stereo not drawn)	1.1%	7.7	10.3	-0.1	5.5	0.5
OC(CNCc1ccccc1Cl)COc1ccc(F)cc1 (stereo not drawn)	-0.2%	1.4	3.7	0.1	52.2	-5.6
CN(Cc1ccccc1)C(=O)c1csc([C@@H]2O[C@H](CO)[C@H](O)[C@H](O)[C@H]2O)n1	3.3%	-2.7	7.2	-0.3	x	2.2
CC(C)CC(=O)Nc1c(C(=O)N2CCN(c3ccccc3)CC2)oc2ccccc12	1.3%	x	x	-0.7	12.6	x
CSc1ncccc1C(=O)N1CCCC(N2CCN(c3ccccc3F)CC2)C1 (stereo not drawn)	0.3%	-5.6	-6.7	-0.2	-4.3	-0.3
Cc1nnc(SCC(=O)Nc2ccccc2F)n1-c1ccc(F)cc1	5.3%	-3.1	x	0.6	35.3	-4.2
CCCNS(=O)(=O)c1ccc(CCC(=O)N2CCN(CC)CC2)cc1	0.8%[38.3 µM]	5.8	2.8	0.1	5.7	-1.5
O=C(CNC(=O)c1cc2c(s1)CCC2)Nc1ccccc1Br	-3.7%	1.2	1.9	-1.2	5.3	3.9
O=C(Nc1ccc(Cl)cc1)N1CCSc2ccccc21	-2.0%	2.5	-2.6	-1.6	9.2	-2.1
Next records follow:
SMILES	PINK1 expr mod	Six1-Eya2 blk	CtBP-E1A inh	TRPML1 ag	TRPML1 inh	D2 agonist
O=C(Nc1cccc([N+](=O)[O-])c1)C1COc2ccccc2O1 (stereo not drawn)	2.6%	0.4	x	-1.2	-2.6	4.2
Cc1nn(Cc2ccccc2)c(C)c1NC(=O)CSc1nc2sc3c(c2c(=O)n1C)CCC3	14.6%	-1.2	-9.6	-1.4	-4.1	-0.3
COc1ccc(OC)c(NC(=O)C2CC(=O)N(Cc3ccco3)C2)c1 (stereo not drawn)	0.3%	4.6	-4.1	0.8	25.9	-2.6
COc1ccc(S(=O)(=O)Nc2ccc3c(c2)CC(=O)N([C@@H](C)CO)C[C@H](C)[C@@H](CN(C)S(=O)(=O)c2ccc(F)cc2)O3)cc1	2.2%	-3.2	-3.3	0.5	-11.3	-3.4
COc1ccc(C2NCCCC2c2ccccc2)cc1 (stereo not drawn)	-2.8%	-4.9	7.5	1.1	5.5	0.7
O=C(NC1CC1)c1ccc(CS(=O)(=O)c2c(Cl)cccc2Cl)o1	4.1%	1.8	7.3	1.4	20.4	-2.7

Reformatted with values under each structure: entries from further up.
Each structure is followed by: PINK1 expr mod	Six1-Eya2 blk	CtBP-E1A inh	TRPML1 ag	TRPML1 inh	D2 agonist
- COc1ccc(C2NCCCC2c2ccccc2)cc1 (stereo not drawn)
  -2.8%	-4.9	7.5	1.1	5.5	0.7
- COc1ccc(OC)c(NC(=O)C2CC(=O)N(Cc3ccco3)C2)c1 (stereo not drawn)
  0.3%	4.6	-4.1	0.8	25.9	-2.6
- O=C(NC1CC1)c1ccc(CS(=O)(=O)c2c(Cl)cccc2Cl)o1
  4.1%	1.8	7.3	1.4	20.4	-2.7
- COc1ccc(S(=O)(=O)Nc2ccc3c(c2)CC(=O)N([C@@H](C)CO)C[C@H](C)[C@@H](CN(C)S(=O)(=O)c2ccc(F)cc2)O3)cc1
  2.2%	-3.2	-3.3	0.5	-11.3	-3.4

Rows are unselected; about 1% have a hit in one of these screens.
